Screening results as filed in PubChem.
Env fusion inh: inhibitors of HIV-1 Env-driven cell-cell fusion, primary screen, HeLa-JRFL effector, CEM21 target cells, luciferase | inhibition, % at 12.3 µM | hit rate 1.1% among 360,000 | AID 651610, 2012;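 active = mean replicate inhibition score of at least 50 and every replicate individually at or above 50; inconclusive = only one of the two criteria met; inactive = mean below 50 and not all replicates reaching 50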;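 note: 0% = plate neutral controls and 100% = maraviroc near 300 nM; one replicate is shown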
MT1-MMP act inh: blockers of MT1-MMP proenzyme processing, primary screen, HT1080 RFP-PRO-GFP cells, GFP/RFP fluorescence | Matrix metalloproteinase-14 (Homo sapiens), P50281 | GFP/RFP ratio fluorescence, overnight; percent of plate control window, DMSO zero | GFP/RFP ratio change, % at 20 µM | hit rate 0.061% among 360,000 | AID 651647, 2012;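 active = GFP/RFP ratio change of at least 30% with cell ATP level not reduced by more than half and red fluorescence within 50% of control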; note: strong numbers were not always called active
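Assay system: HT1080 RFP-PRO-GFP cells. Benchmarks: DMSO vehicle wells and RFP-L50D-GFP reporter cell wells. Times: overnight cell settling, then overnight compound exposure, 37 °C, 5% CO2. Compound: 20 µM single dose, 1% DMSO. Read-out basis: GFP/RFP fluorescence ratio.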
PABP FP inh: PABP poly(A) RNA binding inhibitors, primary screen, biochemical, fluorescence polarization, uHTS | Polyadenylate-binding protein 1 (Homo sapiens), P11940 | inhibition, % at 35 µM | hit rate 1% among 290,000;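 active = 50% or more with normal probe brightness, or confirmed in later tests; inconclusive = above 50% with abnormal brightness, or retests that disagree; inactive = below 50% or failed in later tests; about a fifth of its hits are not listed in these tables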;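 note: calls also rest on retests at 20 µM and on dose response follow-up; controls were probe without protein and protein plus probe with vehicle; some compounds called inactive have numbers as strong as hits; many hits fall short of the cut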
Target sequence (P11940 whole entry, looked up): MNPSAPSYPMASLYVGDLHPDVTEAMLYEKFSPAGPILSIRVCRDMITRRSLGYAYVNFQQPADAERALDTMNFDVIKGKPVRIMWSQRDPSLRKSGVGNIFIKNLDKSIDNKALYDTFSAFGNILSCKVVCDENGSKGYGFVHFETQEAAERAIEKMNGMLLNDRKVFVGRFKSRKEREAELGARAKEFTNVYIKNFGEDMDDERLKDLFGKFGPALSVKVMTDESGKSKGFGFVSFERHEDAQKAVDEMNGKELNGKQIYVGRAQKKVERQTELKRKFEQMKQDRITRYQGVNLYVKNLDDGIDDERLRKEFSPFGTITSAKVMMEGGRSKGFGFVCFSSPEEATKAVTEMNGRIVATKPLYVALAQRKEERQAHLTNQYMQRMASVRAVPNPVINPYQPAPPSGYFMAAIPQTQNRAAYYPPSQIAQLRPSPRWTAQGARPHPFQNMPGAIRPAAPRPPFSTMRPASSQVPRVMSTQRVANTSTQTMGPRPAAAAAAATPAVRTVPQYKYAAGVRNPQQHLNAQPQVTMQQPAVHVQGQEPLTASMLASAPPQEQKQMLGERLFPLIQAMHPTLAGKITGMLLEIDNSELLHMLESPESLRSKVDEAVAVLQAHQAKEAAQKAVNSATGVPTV
Rce1 inh: yeast Rce1p protease inhibitors, primary screen, biochemical, fluorescence, cell-free homogeneous; CAAX prenyl protease 2 (Saccharomyces cerevisiae (strain ATCC 204508 / S288c)), Q03530; yeast membranes, quenched prenylated peptide cleavage fluorescence; calls only; hit rate 0.27% among 290,000; AID 2563, 2010;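 active = fall in fluorescence gain of 50% or more versus controls, with final raw signal at or below 3038400; inconclusive = same 50% fall but final raw signal above 3038400; inactive = fall in fluorescence gain under 50%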;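 note: plate controls were neutral control wells for no effect and wells lacking membranes for full effect; tested at 10 µM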
Target sequence (Q03530 whole entry, looked up): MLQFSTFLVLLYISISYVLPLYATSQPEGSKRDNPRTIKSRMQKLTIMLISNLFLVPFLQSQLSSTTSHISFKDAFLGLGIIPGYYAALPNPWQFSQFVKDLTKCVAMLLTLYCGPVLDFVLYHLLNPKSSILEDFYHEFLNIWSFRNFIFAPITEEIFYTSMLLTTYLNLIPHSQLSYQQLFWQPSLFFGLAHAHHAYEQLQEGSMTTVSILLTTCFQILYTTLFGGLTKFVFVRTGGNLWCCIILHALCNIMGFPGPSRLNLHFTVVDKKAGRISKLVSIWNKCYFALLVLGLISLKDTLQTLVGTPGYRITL
CSC inhib: cancer stem cell viability inhibitors, primary screen, luminescence; inhibition, % at 7.5 µM; cancer stem cell-like cells viability; hit rate 1.1% among 300,000;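 active = mean at 75% or more and at least half the replicates too; inconclusive = mean and replicates disagree; tested in HMLE shEcad cells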;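 note: 0% = median of negative and 100% = median of positive control wells; the first replicate is given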
eIF4H FP inh: human eIF4H binding inhibitors, primary screen, translation initiation inhibitor project, biochemical, uHTS, fluorescence polarization | eIF4H fluorescence polarization binding assay | hit rate 0.94% among 290,000 | AID 2012, 2009 | inhibition, % at 35 µM;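 active = 50% or more with normal probe brightness, or confirmed in later tests; inconclusive = above 50% with abnormal brightness, or retests that disagree; inactive = below 50% or failed in later tests; about a fifth of its hits are not listed in these tables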;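 note: calls also rest on retests at 20 µM and on dose response follow-up; 0% = protein and probe with vehicle and 100% = probe without protein; strong numbers were not always called active; many hits fall short of the cut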
UUG fidelity: modulators of yeast start codon fidelity, primary screen, whole organism, S. cerevisiae, single point, plate reader; S. cerevisiae UUG-firefly luciferase reporter, luminescence/redox ratio; activity score, % at 18.7 µM; hit rate 0.13% among 350,000; AID 602363, 2012;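 active = replicate mean at a twofold rise or more, about +100% in these data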;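 note: firefly luciferase made from a UUG start codon reports start codon fidelity; reporter light over untreated wells divided by growth signal over untreated wells; some hits fall short of that in this replicate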
eIF4H FP inh retest: second read-out of eIF4H FP inh, no call of its own (marks repeat the call); inhibition, %; compound at 20 µM; confirmation average;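 mean of two retest wells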
PABP FP inh retest: also measured in PABP FP inh; calls as there; inhibition, %; compound at 20 µM; confirmation repeats;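 mean of two retest wells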
MT1-MMP act inh RFP: second read-out of MT1-MMP act inh, no call of its own (marks repeat the call); RFP signal change, %; measured here: RFP expression control read;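 0 = vehicle wells; hits needed this value within 50% of zero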
Active calls of the source: *; i = inactive; ? = inconclusive; . = not tested or not shown; & = joins results of further samples; [ ] = another dose, or the depositor's remark.

SMILES	Env fusion inh	MT1-MMP act inh	MT1-MMP act inh RFP	PABP FP inh	Rce1 inh	CSC inhib	eIF4H FP inh	UUG fidelity	others
Cc1cc(=O)nc2c3ccccc3n(CC(=O)NC(C)c3ccc4c(c3)OCCO4)n12 (configuration not stated)	9	-5	2	5	i	6	-2	.
Cc1ccc(NC(=O)CSCC(=O)N2CCOCC2)cc1	25	5	1	-46	i	-10	-4	-9
Nc1nc(CSCc2ccccc2)nc(N2CCOCC2)n1	.	2	5	8	i	-1	7	.
Cc1ccccc1NC(=O)NC1CCS(=O)(=O)C1 (configuration not stated)	1	1	2	6	i	-7	-4	-18
COc1ccccc1NC(=O)c1ccccc1C(=O)Nc1ccccc1OC	12	1	3	2	i	4	0	-9
CCOc1ccc(NC(=O)c2ccc(NC(=O)C3CCCO3)cc2)cc1 (configuration not stated)	-14	3	-4	-4	.	1	-9	-12
CCO[C@H]1OC(C(=O)O)=C[C@@H](c2ccc3c(c2)OCO3)[C@@H]1CCCO	5[16.7 µM]	-3	3	-4	i	-5	-6	-2&-15
CCOc1ccc2oc(C(=O)Nc3nccs3)c(C)c2c1	-193	-4	-3	.	.	4	.	-13
Cc1ccc(S(=O)(=O)CCC(=O)NCc2ccccc2Cl)cc1	25	-1	1	-5	i	-12	-3	.
CC(C)Oc1ccc(S(=O)(=O)N2CCOCC2)cc1NC(=O)c1nn(C)c(=O)c2ccccc12	14	2	0	.	.	.	.	-3
CC1(C)Cc2c(c(N3CCOCC3)nc3sc4c(NCC5CCCO5)nnnc4c23)CS1 (configuration not stated)	14	-2	-7	17	i	3	9	-10
O=C(NCCN1CCN(c2ccccc2)CC1)c1cccn2c(=O)c3ccccc3nc12	.	4	-5	-4	i	-1	1	-18
COC(=O)c1ccc(C23CC4(C2)[C@H](CN(Cc2ccc(C(F)(F)F)cc2)[C@@H]4c2ccccc2)C3c2ccc(Cl)nc2)cc1 (some centres not stated)	-30	.	.	-19	i	12	0	.
CCCN(C(=O)c1cc(S(=O)(=O)N2CCCCCC2)ccc1OC)C1CCS(=O)(=O)C1 (configuration not stated)	9	-4	1	.	i	2	.	-13
Cc1nnc(-c2ccco2)c2cn(-c3cccc(Br)c3)nc12	4	-1	10	-10	i	-3	64*	.	eIF4H FP inh retest=64*;PABP FP inh retest=38
COCCCn1c(SCC(=O)N2CCc3ccccc32)nnc1-c1ccoc1C	-28	-10	4	.	i	-11	.	-17
CC1CCc2sc(C(=O)NC3CCCCC3)cc2C1 (configuration not stated)	-72	-1	-1	.	.	-10	.	-13
COc1ccc(/C=C/C(=O)OCC(=O)Nc2ccc3c(c2)OCO3)cc1	-42	4	2	.	.	-6	.	13
COc1ccccc1N(CC(=O)NCC1CCCO1)C(=O)Cn1nnc(-c2cccs2)n1 (configuration not stated)	8	-6	-2	2	i	-3	-2	.
O=C(NNC(=O)c1ccccc1Br)c1ccncc1	3	-1	-2	-6	i	-5	1	-14

Pulled by structure from above, 2 records:
SMILES	Env fusion inh	MT1-MMP act inh	MT1-MMP act inh RFP	PABP FP inh	Rce1 inh	CSC inhib	eIF4H FP inh	UUG fidelity	others
Cc1ccc(S(=O)(=O)CCC(=O)NCc2ccccc2Cl)cc1	25	-1	1	-5	i	-12	-3	.
Cc1ccccc1NC(=O)NC1CCS(=O)(=O)C1 (configuration not stated)	1	1	2	6	i	-7	-4	-18

Other records
SMILES	Env fusion inh	MT1-MMP act inh	MT1-MMP act inh RFP	PABP FP inh	Rce1 inh	CSC inhib	eIF4H FP inh	UUG fidelity	others
CCOC(=O)c1sc(NC(=O)c2cc(S(=O)(=O)N3CCOCC3)ccc2C)nc1C	.	1	-3	3	i	-8	2	-12
COc1cc(C(=O)COC(=O)c2ccco2)cc(OC)c1OC	22	0	1	.	.	-2	.	-16
Cc1cccc(C(=O)NC(C(=O)Nc2cccc(S(=O)(=O)N3CCCC3)c2)C(C)C)c1 (configuration not stated)	.	-14	-13	.	.	-5	.	-9
COc1cccc(-c2nc(N)nc(SC)c2C#N)c1	20	0	2	3	i	-2	-12	.
COc1ccc(OC)c2c1sc(=NC(=O)c1cccc(N3C(=O)CCC3=O)c1)n2C	-3	-2	-6	-1	i	23	-7	15
CN(C)S(=O)(=O)c1cccc(NC(=O)COC(=O)/C=C/c2ccco2)c1	-7	13	-2	-7	i	-16	86	.	eIF4H FP inh retest=1;PABP FP inh retest=22
COc1ccc(CN(C(=O)c2cccc(OC)c2)C2CCS(=O)(=O)C2)cc1 (configuration not stated)	8	1	0	7	i	-8	1	-8
CCOc1ccc(C(CC(=O)O)NS(=O)(=O)c2ccc(C)cc2)cc1OC (configuration not stated)	.	8	2	6	.	.	4	-24
O=C1COc2ccc(S(=O)(=O)N3CCc4ccccc43)cc2N1	-28	-2	-6	2	i	-1	-3	-6
CCNc1nc(NCC)n2c(SCC(=O)Nc3cccc(Cl)c3)nnc2n1	.	5	-4	.	i	-11	.	2
Cc1cccc(C(=O)O/N=C(\N)CS(=O)(=O)c2ccccc2)c1	-6	1	5	0	i	-4	-6	-8
CS(=O)(=O)N1CCN=C1SCc1ccc(F)cc1	-1	0	3	0	i	-13	-7	-16
CN1CCN(C(=O)C2CCC(CNS(=O)(=O)c3cccc4cccnc34)CC2)CC1 (configuration not stated)	7	-6	3	-1	i	35	-7	-18
Cc1ccc(C)c(CSc2nnc(C)c(=O)[nH]2)c1	-3	1	4	-2	.	-7	-4	.
COc1ccc(CN(C)C(=O)c2[nH]c(C)c(C(C)=O)c2C)c(OC)c1OC	14	0	-12	7	.	-7	-24	.
CC(C)NC(=O)C1CCN(C(=O)C(C(=O)c2ccccc2)n2cc(Cl)ccc2=O)CC1 (configuration not stated)	-58	3	2	9	.	-8	9	-13
CCCC(NC(=O)CCc1c(C)c2cc3c(-c4ccccc4)coc3cc2oc1=O)C(=O)O (configuration not stated)	-15	3	1	19	i	-5	-5	-3
CCOc1ccc2[nH]cc(S(=O)(=O)c3ccc(Cl)cc3)c(=O)c2c1	35	-6	-14	-14	i	-6	-6	.
COc1ccc(CN2C(=O)C(CC(=O)NC3CCCC3)CC(C(=O)N(C(C)C)C(C)C)=C2C)cc1 (configuration not stated)	-2	1	3	.	.	.	.	-2
COc1ccc(NC(=O)CCNS(=O)(=O)c2cccc3nonc23)cc1	2	-5	-5	0	i	-11	-8	-1
C#CCNc1nc(C)nc2c1nnn2Cc1ccccc1F	.	-2	-2	8	i	18	6	-5
CSc1nc2ccccc2n1Cc1c(Cl)cccc1Cl	-9	-2	-4	1	i	-4	-2	-23
CC1CCC2(CC1)NC(=O)N(CC(=O)NCc1ccc(F)cc1)C2=O (configuration not stated)	3	-5	-2	.	.	-21	.	-29
COC(=O)c1sccc1NC(=O)C1C2C=CC(O2)C1C(=O)O (configuration not stated)	-29	-3	2	2	i	-7	16	-14
O=C(COc1ccc(S(=O)(=O)N2CCCC2)cc1)N1CCN(c2ccccc2F)CC1	6	-2	-10	14	i	-2	0	-10
COc1ccc(CN2C(=O)c3cccnc3C2O)cc1 (configuration not stated)	-17	4	5	6	i	5	4	-15
COc1ccc(OCC(O)Cn2c(=N)n(CCN3CCOCC3)c3ccccc32)cc1 (configuration not stated)	-31	-6	1	-2	i	6	-1	-25
CCCN(CCC)CCNC(=O)C1c2ccccc2C(=O)N(CCOC)C1c1ccc(F)cc1 (configuration not stated)	-135	2	-1	10	i	.	1	-13
CCOc1ccc(N(CC(=O)NCc2cccc(OC)c2)S(=O)(=O)c2c(C)noc2C)cc1	12	-9	-3	22	i	-2	-12	2
Cc1ccc(CNC(=O)c2ccc(N3CCC4(CC3)CC(c3cccc(Br)c3)=NO4)c(NC(=O)c3ccco3)c2)cc1	-3	8	0	.	i	-2	.	-12
Cn1cccc1C(NC(=O)c1ccccc1)C(Cl)(Cl)Cl (configuration not stated)	16	-1	-3	2	i	2	2	-6
COc1ccc(/C=N/NC(=O)c2cccc(NC(=O)c3ccc(F)cc3)c2)c(C(=O)O)c1OC	-6	-6	2	-3	.	-15	-2	-12
O=C1CC(c2ccccc2)CC(O)=C1C=NCc1ccc(Cl)cc1 (configuration not stated)	.	3	1	-3	i	-7	-5	-19
CC(=O)c1ccc(OCc2cc(C(=O)NCCN3CCCC(O)C3)no2)cc1 (configuration not stated)	5	-3	1	0	i	12	4	-15
O=C(N/N=C/c1c(O)ccc2ccccc12)c1ccc[n+](CCO)c1	14	6	5	-6	i	31	6	.
O=C(N/N=C/c1ccc([N+](=O)[O-])o1)c1sc2ccccc2c1Cl	-33	-10	-6	38	i	22	72*	.	eIF4H FP inh retest=64*;PABP FP inh retest=48
CCOc1ccccc1C1CC(=O)Nc2cc(OC)c(OC)cc21 (configuration not stated)	1	-1	-1	11	i	-10	-14	-9
O=C(Nc1ccccc1F)c1ccc(S(=O)(=O)NCC2CCCO2)cc1 (configuration not stated)	.	6	-3	-8	i	-6	-3	-19
COc1ccc(/C=C(\C#N)C(=O)NCc2cccnc2)cc1OC	2	-2	3	-13	.	-6	-8	.
CCC1CN(C(=O)N2CCC(C(=O)NCc3ccc(C)o3)CC2)c2ccccc2O1 (configuration not stated)	-1	-5	0	-6	i	-4	-13	-4

Filtered by structure: the entries above containing a cyano group.
SMILES	Env fusion inh	MT1-MMP act inh	MT1-MMP act inh RFP	PABP FP inh	Rce1 inh	CSC inhib	eIF4H FP inh	UUG fidelity	others
COc1cccc(-c2nc(N)nc(SC)c2C#N)c1	20	0	2	3	i	-2	-12	.
COc1ccc(/C=C(\C#N)C(=O)NCc2cccnc2)cc1OC	2	-2	3	-13	.	-6	-8	.

(further entries)
SMILES	Env fusion inh	MT1-MMP act inh	MT1-MMP act inh RFP	PABP FP inh	Rce1 inh	CSC inhib	eIF4H FP inh	UUG fidelity	others
CC(=O)c1cccc(NC(=S)NC(=O)c2ccc(Cl)cc2)c1	-52	4	-7	-3	i	-4	-1	.
CCCCCCNC(=O)Nc1ccccc1	-128	1	-1	6	i	-4	1	-11
O=C(CSc1nnc(-c2ccco2)n1Cc1ccccc1)NCc1ccccc1	.	-6	-3	?	i	8	-8	-10
CN(C)CCCNc1ncnc2c1cnn2-c1ccccc1	.	.	.	-3	i	-3	-2	-4
CCN(C[C@H]1N[C@@](C)(C(=O)OC)[C@H]2C(=O)N(Cc3ccccc3)C(=O)[C@@H]12)C(=O)COC	-12	0	4	.	.	.	.	-21
O=C(CCS(=O)(=O)c1ccccc1)Nc1ccc(Cl)cn1	-3	-2	-1	8	i	.	37	-3
Cc1cc(=O)oc2cc(OCC(=O)N3CCCC3)c(Cl)cc12	4	-1	6	.	.	-2	.	-28
O=S(=O)(CCN1CCOCC1)c1ccc(OC(F)(F)F)cc1	7	2	7	-1	i	-5	2	-19
NC(N)=Nc1nc(-c2ccccc2)c2cc(Cl)ccc2n1	3	-9	-6	-8	i	43	-12	-14
CNC(=S)NNc1nc(N2CCOCC2)nc(N2CCOCC2)n1	-4	-4	0	8	i	-1	4	-23
COc1ccc(C)cc1NC(=O)CCC(=O)Nc1nnc(C2CCCCC2)s1	5	1	0	-6	i	-5	-4	-7
